Source: PubChem BioAssay (National Center for Advancing Translational Sciences (NCATS))
gsp agonist: activates gsp, the McCune-Albright syndrome mutation; gsp mutant cells, cAMP HTRF, 30 min; control for the full effect not named in the record; Potency, µM (doses to about 76.9 µM), inactives show at the top dose activation (cAMP increase), actives largely listed as activators; hit rate 0.13% among 340,000; AID 624287; active = well fitted activation curve with a large enough effect; inconclusive = small, poorly fitted or top-dose-only effect, or another doubt; inactive = no such curve, though single readings can be large or run the other way; cell line not stated here;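 also: phosphodiesterase inhibitor Ro 20-1724 added with compounds to block cAMP breakdown; potency is read from the fitted curve at half-maximal effect; nearly all actives have a fitted effect of over 60% in size; about a fifth of the inactives were tested at one dose only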
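Cells in DMEM/10% FBS with G418 were pretreated with compounds in DMSO plus […] (300 uM stock) for 30 min at 37C. cAMP was measured by HTRF (cAMP-d2 plus anti-cAMP antibody-K) after 30 min at room temperature.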
D2 PAM: positive allosteric modulators of human D2 dopamine receptor | DiscoveRx D2 beta-arrestin cells, luminescence, 90 min; 100% = 57 uM dopamine signal | potentiation, % (concentration not given with the values) | hit rate 0.23% among 360,000 | AID 624464; active = potentiation of 50% or more; inconclusive = 30% to 50%; inactive = 30% or less;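 also: compound concentration not given in the record; tested on top of an EC20 dose of dopamine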
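D2 cells co-treated with compound plus 50 nM dopamine (EC20) for 90 min at 37 deg C to detect potentiation. Beta-arrestin recruitment was read as enzyme-fragment luminescence after 1 h at ambient temperature. Full response was set by 57 uM dopamine.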
Six1-Eya2 inh: inhibitors of human Six1/Eya2 interaction; Q15475+O00167; AlphaScreen GST-Six1/His-Eya2 binding, biochemical; active compounds read low; control for the full effect not named in the record; activity change, % (test concentration not listed); hit rate 0.56% among 360,000; AID 651725; in the data active = activity change below about -65%; inconclusive = about -30% to -65%; inactive = above about -30%; also: % is scaled to controls: 0 for no effect and ±100 for the full control effect
Target sequence (O00167 whole entry, looked up): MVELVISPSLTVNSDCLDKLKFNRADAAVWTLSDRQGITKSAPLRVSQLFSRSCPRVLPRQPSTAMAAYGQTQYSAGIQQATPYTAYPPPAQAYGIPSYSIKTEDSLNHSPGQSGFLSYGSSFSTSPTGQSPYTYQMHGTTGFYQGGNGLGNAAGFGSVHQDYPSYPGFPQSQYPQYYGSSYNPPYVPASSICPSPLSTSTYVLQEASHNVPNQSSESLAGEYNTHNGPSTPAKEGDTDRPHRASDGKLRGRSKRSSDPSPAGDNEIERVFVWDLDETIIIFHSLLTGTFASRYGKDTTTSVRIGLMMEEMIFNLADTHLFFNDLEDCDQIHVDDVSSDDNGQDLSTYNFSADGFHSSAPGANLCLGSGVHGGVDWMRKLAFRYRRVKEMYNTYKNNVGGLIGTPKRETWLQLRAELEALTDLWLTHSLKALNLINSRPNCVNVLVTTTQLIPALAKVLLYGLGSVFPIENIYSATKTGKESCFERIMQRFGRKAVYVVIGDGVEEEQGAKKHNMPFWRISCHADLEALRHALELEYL
Target sequence (Q15475 whole entry, looked up): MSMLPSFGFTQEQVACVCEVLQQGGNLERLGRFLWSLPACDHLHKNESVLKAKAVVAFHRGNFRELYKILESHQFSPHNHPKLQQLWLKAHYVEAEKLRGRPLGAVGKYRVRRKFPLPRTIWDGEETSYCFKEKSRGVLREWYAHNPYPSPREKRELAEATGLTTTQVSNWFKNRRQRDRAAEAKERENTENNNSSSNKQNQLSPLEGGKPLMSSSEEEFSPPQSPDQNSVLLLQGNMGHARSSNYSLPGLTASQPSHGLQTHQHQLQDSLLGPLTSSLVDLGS
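Six1/Eya2 binding was read as AlphaScreen signal after compounds were pinned into GST-Six1 plus His-tagged Eya2 (5X stock 250/500 nM) in pH 8.0 Tris/NaCl/TCEP buffer, beads added, then incubated 1 h, 37 C, dark.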
D2 agonist: activates the human D2 dopamine receptor; P14416; DiscoveRx PathHunter D2 beta-arrestin, luminescence, 90 min; 100% = 57 uM dopamine signal; activation, % (no concentration beside the values); hit rate 0.084% among 360,000; AID 624465; in the data active = activation above about 40%; inconclusive = about 15% to 40%; inactive = below about 15%; also: compound concentration not given in the record; the text of the record calls up to 30% inactive
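DiscoveRx PathHunter D2 beta-arrestin cells (2,100/well) attached overnight, then compound-stimulated 90 min at 37 C in HBSS/10 mM HEPES/0.1% Tween-20 buffer; beta-galactosidase complementation read by luminescence after 1 h at ambient temperature. Dopamine 57 uM final (EC100) as control.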
CtBP-E1A blk: CtBP/E1A binding inhibition | AID 651724 | hit rate 0.49% among 340,000 | AlphaScreen GST-E1A/His-CtBP binding, 1536-well; active compounds read low; control for the full effect not named in the record | activity change, % (test concentration not listed); in the data active means activity change below about -65%; inconclusive means about -30% to -65%; inactive means above about -30%; also: % is scaled to controls: 0 for no effect and ±100 for the full control effect
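AlphaScreen with 125 nM GST-E1A and 125 nM His-CtBP (5X stocks) in Tris pH 8.0, 300 mM NaCl, BSA, Tween 20, TCEP. Compounds preincubated 2 h at 37 deg C, then glutathione donor/nickel acceptor beads added for 1 h at 37 deg C in dark.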
gsp antag: gsp mutant antagonism | gsp-mutant cells, cAMP HTRF, 30 min; control for the full effect not named in the record | Potency, µM (doses to about 76.9 µM), for inactives: at the highest dose activity change, negative = inhibition, actives largely listed as inhibitors | hit rate 0.4% among 340,000; active = falling curve of any shape with a large fitted effect; inconclusive = falling curve, mostly with a smaller effect; inactive = flat or rising curve; cell line not stated here;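 also: intracellular cAMP measured with PDE inhibitor Ro 20-1724 present during compound exposure; potency is read from the fitted curve at half-maximal effect; % is scaled to controls: 0 for no effect and ±100 for the full control effect; nearly all actives have a fitted effect of over 65% in size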
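HTRF cAMP measurement after 30 min RT detection following 30 min, 37C compound treatment alongside […] (added as 300 uM solution) in G418-selected cells seeded at 2000/well and grown 16–24 h.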
Starred values were filed as active, the others as inactive; ? = inconclusive; / = no result given; [ ] = another dose, or the depositor's remark.

SMILES	gsp agonist	D2 PAM	Six1-Eya2 inh	D2 agonist	CtBP-E1A blk	gsp antag
COc1ccc(C2c3sc(=O)[nH]c3SC3C4CCC(C4)C23)cc1 (stereo not given)	10%	3	0	-1.3	-2	-3%
CCC1CCC(N2CCN(c3cccc(OC)c3)CC2)CC1 (stereo not given)	1%	-4	-19	-2.3	-20	8%
Cn1c(N)c(C(=O)COC(=O)COc2ccc(C#N)cc2)c(=O)n(C)c1=O	?	-16	0	-0.7	-23	-13%
CCOC(=O)c1ccc(CC(=O)c2oc3cc(O)ccc3c2C)o1	13%	-21	-2	2.6	-3	-18%
Cc1cc(C)c(NC(=O)C(C)Sc2nc3ccc(N4C(=O)c5ccccc5C4=O)cc3s2)c(C)c1 (stereo not given)	-3%	-1	3	-1.1	6	12%
COC(=O)c1c(NC(=O)COC(=O)CCNS(=O)(=O)c2ccccc2)sc(C)c1C	4%[15.4 µM]	5	-22	0.7	-7	?
COc1ccc(C(c2nnnn2C(C)(C)C)N2CCN(C/C=C/c3ccccc3)CC2)cc1 (stereo not given)	/	-14	1	-4.1	2	/
COc1ccc(/C=N/NC(=O)c2cccc(NC(=O)c3ccccc3Cl)c2)cc1OC	9%[15.4 µM]	-2	-21	-2.9	-18	-4%
COc1ccccc1NC(=S)N1CCCC1	0%	0	0	-0.7	7	3%
O=C(N/N=C/c1ccco1)C1(O)c2ccccc2-c2ccccc21	-33%[inhibitor]	-7	7	-4.7	7	-10%
O=C1c2ccccc2NC(c2cccc(O)c2)N1NS(=O)(=O)c1ccccc1 (stereo not given)	11%	-3	10	-5.4	-23	-3%
CC(N=C1NS(=O)(=O)c2ccccc21)c1ccccc1 (stereo not given)	23%	0	5	-1.7	12	4%
O=C(CCN1C(=O)COc2ccccc21)NCCCN1CCN(c2ccc(F)cc2)CC1	-49%	-21	-3	-2.9	-3	13%
O[C@@H]1CN(Cc2cccs2)[C@@H](c2ccc(Cl)cc2)C[C@H]1n1cc(C2CC2)nn1	-5%	1	0	-10	1	/
Cc1ccccc1COc1ccc(/C=C(\C#N)C(N)=O)cc1	-25%[15.4 µM]	-1	0	-11	5	4%
COc1ccc(N2CC(C(=O)NCCc3c[nH]c4ccccc34)CC2=O)cc1 (stereo not given)	0%[15.4 µM]	7	0	3.7	28	-27%
CCOC(=O)c1cc(-c2ccc3c(c2)OCO3)nc2onc(C)c12	-27%	-6	19	-0.9	10	12%
C[C@H](NC(=O)[C@H](Cc1ccccc1)n1c(=O)[nH]c2ccccc2c1=O)C(=O)N1CCC(C(=O)O)CC1	/	0	-1	-5.4	4	6%
O=C(COC(=O)CCc1ccccc1)NNC(=O)c1ccccc1	-25%	-6	4	-1.5	5	6%
COc1ccccc1-c1nnc(SCC(=O)N2CCC(C)CC2)o1	?	-15	-5	-1.6	-1	-1%
Cc1ccc(S(=O)(=O)N2CCN(C(=O)COC(=O)c3ncc(Cl)c(Cl)c3Cl)CC2)c(C)c1	6%	8	-5	-2.2	-14	-12%
O=C(NCCOCCOCCNC(=O)c1ccccc1)c1ccccc1	-5%[15.4 µM]	-12	0	-2.7	5	11%
O=c1[nH]cnc2sc3c(c12)CN(Cc1ccccc1)CC3	19%[15.4 µM]	18	-17	?	-7	5%
COc1ccc(S(=O)(=O)N2CCC(C(=O)N[C@H](C(=O)NCc3ccncc3)C(C)C)CC2)cc1	?	-8	0	-4.3	9	16%
Nc1ccn([C@@H]2O[C@H](CNCc3cccc(OC4CCCC4)c3)[C@@H](O)[C@H]2O)c(=O)n1	?	/	0	-1.6	2	/
CCc1c(O)nc(SCC(=O)N(CC)CC)[nH]c1=O	0%[15.4 µM]	3	13	-1.6	-3	17%
CC(/C=C/c1ccco1)=N\NC(=O)c1cccnc1	-41%[inhibitor]	-9	-7	-2.1	2	0%
NC(=O)c1sc2nc3c(cc2c1N)CCCCCC3	4%[15.4 µM]	-2	-4	-22	-4	-13%
OCCCCCN=c1cc(-c2ccccc2)oc2ccc(Cl)cc12	2%	-18	-19	-0.6	-9	4%
O=C(CNC(=O)c1ccco1)N/N=C/c1cccs1	-8%[15.4 µM]	-6	5	-0.9	0	-26%
Nc1nc(SCc2ccccn2)c2ncn(C3CCCC3)c2n1	?	0	0	-1.7	0	10%
O=C(COc1ccc2ccccc2c1)NNC(=O)Cc1ccccc1	-5%	-6	-5	-0.6	3	-24%
CCOC(=O)Cn1nc(-c2ccccc2)nc1-c1ccccc1	-10%	-6	6	-2.3	-3	-11%
Cc1cn2c(-c3ccc(Cl)cc3)nnc2s1	5%	1	3	-6.2	-18	-3%
CCOc1ccc(NC(=O)COc2ccc(C(=O)NCC3CCCO3)cc2OC)cc1 (stereo not given)	14%	-16	1	0.0	-5	-1%
Cc1ccc(OCc2nnc(SC(C)C(=O)O)n2-c2ccccc2)cc1 (stereo not given)	10%	-2	1	-0.4	2	-15%
O=C(Nc1nnc(SCc2cccc3ccccc23)s1)C1COc2ccccc2O1 (stereo not given)	15%	-7	-2	-2.5	-6	-16%
COc1cc(NC(=O)C(C)C)ccc1NC(=O)c1ccco1	-35%[inhibitor]	-5	-8	0.4	-11	-1%
C=C(C)CNC(=S)Nc1cccc2cnccc12	-5%[15.4 µM]	3	12	2.3	0	-10%
CCN1CCN(Cc2ccc(NC(=O)c3ccc(C)c(NC(=O)c4nccn4C)c3)cc2C(F)(F)F)CC1	/	-15	-4	-3.0	-2	2%
Cc1ccc(C)c(N(Cc2ccccc2F)S(C)(=O)=O)c1	-6%	-20	8	-2.2	11	4%
Cc1cccc(C(=O)N2CCC(C)(C(=O)NS(=O)(=O)C3CC3)C2)c1C (stereo not given)	/	0	-4	1.7	2	/
CNC(=S)N/N=C/c1ccc2c(c1)OCCO2	-2%	-8	4	0.9	/	4%
C/C(=N/NC(=O)CSc1nc2ccccc2n1C)c1ccco1	-19%	-27	-1	-4.1	0	-1%
CC1(C)Cc2c(c(-c3ccccc3)[nH]c(=O)c2C#N)CO1	23%	-2	3	-1.7	-1	-11%
CCN1CCc2c(C#N)c(NCc3ccccc3)nc(N(CC)CC)c2C1	26%	-37	-16	-1.6	-20	24%
CCN(CC)C(=N)/C(C#N)=N/Nc1ccc(C)cc1	-1%[15.4 µM]	-13	-4	-4.4	-6	-14%
CC(C)NC(=O)/C(C#N)=C/c1ccc2c(c1)OCCO2	6%[15.4 µM]	-6	13	-1.8	0	4%
CC(C)CC[C@@H](O)[C@](C)(O)C1CC[C@@]2(O)C3=CC(=O)[C@@H]4C[C@@H](O)[C@@H](O)C[C@]4(C)C3CC[C@]12C (stereo not given in full)	-6%	-2	-9	-5.5	3	5%
CC(C)NS(=O)(=O)c1ccc(NC(=O)C(C)OC(=O)CCC(=O)c2cccs2)cc1 (stereo not given)	5%	6	6	-2.2	/	-18%
CC(=O)N1CCN(c2ccccc2NC(=O)c2cc3ccccc3o2)CC1	3%	-16	-3	1.9	-17	?
COc1ccccc1NC(=O)c1ccc(-c2nn(C)c(=O)c3ccccc23)cc1	1%[15.4 µM]	2	-8	-1.1	-6	40µM*
Cc1nc(SCC(=O)NC(=O)NCc2ccccc2)nc(C)c1C	6%	-4	1	-3.5	-1	10%
COc1ccc(C2CC=C(C(C)=O)CN2S(=O)(=O)c2ccccc2)cc1 (stereo not given)	/	-8	13	-4.3	-20	/
CCC(=O)NC(NC(=S)Nc1c(C)n(C)n(-c2ccccc2)c1=O)C(Cl)(Cl)Cl (stereo not given)	-19%	-22	-8	-4.0	18	0%
CC(=O)N1CCCC(C)(C(=O)Nc2cccc(OC(C)C)c2)C1 (stereo not given)	/	-9	2	-7.6	5	/
Cc1cnccc1CN(C)C(=O)C1CCC(=O)N(Cc2ccccc2F)C1 (stereo not given)	21%	-2	1	-1.9	/	-10%
CCOC(=O)/C(=C/c1ccc(OC(=O)c2ccccc2)cc1)C(C)=O	-41%	-16	?	-5.6	-26	3%
O=[N+]([O-])c1cccc(CSc2nnc3ccccn23)c1	26%[15.4 µM]	-1	0	-1.0	-18	/
COCCn1c(N)c(N(Cc2ccccc2)C(=O)c2cc3ccccc3o2)c(=O)[nH]c1=O	-1%[15.4 µM]	-10	4	-2.3	5	10%

(further entries)
SMILES	gsp agonist	D2 PAM	Six1-Eya2 inh	D2 agonist	CtBP-E1A blk	gsp antag
CCOC(=O)C1CCN(C2=NC(=O)/C(=C/c3ccc(O)cc3)S2)CC1	?	-6	2	-3.7	7	-6%
COc1ccc(/C=C2/SC(=O)N(CC(O)Cn3c4ccccc4c4ccccc43)C2=O)cc1 (stereo not given)	6%[15.4 µM]	-4	-9	-9.7	6	13%
COc1ccnc(Oc2ccc(F)cc2)c1C(=O)N/C=N/OCc1ccccc1	-24%[15.4 µM]	5	-2	-4.8	-10	5%
COc1ccc(S(=O)(=O)N2CCN(C(=O)c3ccc(=O)[nH]n3)CC2)cc1OC	-80%[inhibitor]	-11	4	3.7	12	5%
COc1ccc(CCNC(=O)CNC(=O)N2CC(=O)Nc3ccccc32)cc1OC	?	-6	2	0.9	5	/
COC(=O)c1ccc(C23CC4(C2)[C@H](CN(Cc2cccnc2)[C@@H]4c2ccccc2)C3c2ccc(C(F)(F)F)cc2)cc1 (stereo not given in full)	-15%	-3	2	-3.4	0	-2%
Cc1cc(C)c(Cn2c(=O)[nH][nH]c2=O)cc1Cn1c(=O)[nH][nH]c1=O	0%	-4	-3	-5.5	-1	/
O=C(O)c1ccc(CNCc2ccccc2F)cc1	5%[15.4 µM]	-4	-1	-5.1	-6	12%
COCCNC(=O)Cn1nc(-c2ccccc2F)ccc1=O	-9%[15.4 µM]	-13	18	-5.5	10	-12%
O=C(CNCCCO)Nc1cc(C(F)(F)F)cc(NC(=O)CNCCCO)c1Cl	-4%	-21	1	-3.7	-12	10%
Cc1cccc(N(CC(=O)NC(C)(C)C)C(=O)CS(=O)CC(=O)Nc2ccc(F)cc2)c1 (stereo not given)	-15%	-6	0	-0.4	8	8%
CN(c1ccccc1)S(=O)(=O)c1cccc(NC(=O)C2=NN(c3ccccc3)C(=O)CC2)c1	?	1	-7	-0.7	/	?
CCOc1ccccc1NC(=O)CCCCCN1C(=O)[C@@H]2Cc3ccccc3CN2C1=O	-17%	-34	5	2.7	9	-5%

Sorted by length of the SMILES (smallest number first): some entries from above.
SMILES	gsp agonist	D2 PAM	Six1-Eya2 inh	D2 agonist	CtBP-E1A blk	gsp antag
COc1ccnc(Oc2ccc(F)cc2)c1C(=O)N/C=N/OCc1ccccc1	-24%[15.4 µM]	5	-2	-4.8	-10	5%
CCOC(=O)C1CCN(C2=NC(=O)/C(=C/c3ccc(O)cc3)S2)CC1	?	-6	2	-3.7	7	-6%
COc1ccc(/C=C2/SC(=O)N(CC(O)Cn3c4ccccc4c4ccccc43)C2=O)cc1 (stereo not given)	6%[15.4 µM]	-4	-9	-9.7	6	13%
